Source: PubChem
NS1 function inh – qHTS Assay for Inhibitors of Influenza NS1 Protein Function; S. cerevisiae slowed by influenza A NS1, growth recovery by OD600; hit rate 0.4% among 270,000; AID 2326, 2010; Potency, µM (doses to about 46.1 µM), without a hit: at the highest dose activity, positive = more growth; active means well fitted rising curve with a large enough effect; inconclusive means small, poorly fitted or top-dose-only effect; inactive means no such curve, though single readings can be large or run the other way; note: nearly all actives have a fitted effect of over 50% in size
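Read-out: OD600 growth recovery of NS1-expressing budding yeast. Cells grown overnight at 30C in -URA glucose medium, washed, resuspended and diluted 1:100 in 2% galactose assay medium, pH 6.0. Same strain lacking NS1 served as positive control.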
Cruzain noTriton – qHTS Assay for Promiscuous and Specific Inhibitors of Cruzain (without detergent). purified cruzain, Z-FR-AMC fluorescence, no detergent. AID 1476, 2009. Potency, µM, for the others: max response, negative = inhibition, usual class: inhibitors. hit rate 2.3% among 200,000. Cruzipain (Trypanosoma cruzi), P25779;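 note: plate controls were enzyme without inhibitor for no effect and buffer without enzyme for full effect; nearly all actives have a fitted effect of over 40% in size; top concentration of the series not given in the record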
Target sequence (P25779 123-467 limits assumed): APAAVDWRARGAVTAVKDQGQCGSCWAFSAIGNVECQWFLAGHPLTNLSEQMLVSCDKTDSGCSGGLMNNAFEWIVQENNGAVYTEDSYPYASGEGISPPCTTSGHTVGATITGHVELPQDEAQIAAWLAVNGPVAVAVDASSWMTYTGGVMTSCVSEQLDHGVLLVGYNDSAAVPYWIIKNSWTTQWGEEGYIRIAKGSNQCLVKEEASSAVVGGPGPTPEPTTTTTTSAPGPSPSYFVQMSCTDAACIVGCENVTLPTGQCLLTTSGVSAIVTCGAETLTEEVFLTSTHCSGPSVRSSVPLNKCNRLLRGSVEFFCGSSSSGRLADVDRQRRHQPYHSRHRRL
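Detergent-free condition (0.00005% Triton X-100) in acetate buffer pH 5.5 with DTT. 1.5 nM enzyme and compound were pre-mixed 15 min, then 2 uM Z-FR-AMC substrate added; reaction progress from fluorescence change between first and third reads (60 s).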
StopGo reporter – High Throughput Screening for Foot and Mouth Disease Virus Antivirals. human cells with a luciferase reporter of 2A StopGo recoding; control for the full effect not named in the record. Potency, µM (highest dose often 57.9 µM), without a hit: top-dose signal change, negative = less light. hit rate 1.2% among 410,000. AID 1159524, 2015; active = well fitted falling curve with a large enough effect; inconclusive = small, poorly fitted or top-dose-only effect; inactive = no such curve, though single readings can be large or run the other way; tested in HEK293T cells; note: % is set by controls: 0 for no effect and ±100 for the full control effect; nearly all actives have a fitted effect of over 45% in size; luciferase light after 4 h
Lassa entry inh – qHTS for Inhibitors of binding or entry into cells for Lassa Virus; AID 540256, 2011; hit rate 1.2% among 300,000; Potency, µM (highest dose often 37.9 µM), without a hit: top-dose activity change, negative = inhibition, hits mostly inhibitors; Lassa virus pseudotype entry inhibition, cell reporter; control for the full effect not named in the record; active means well fitted inhibition curve with a large enough effect; inconclusive means small, poorly fitted or top-dose-only effect, or effect the other way; inactive means flat fitted curve, though single readings scatter; tested in HEK293 cells; note: % is set by controls: 0 for no effect and ±100 for the full control effect; nearly all actives have a fitted effect of over 50% in size; luciferase read-out
Cruzain Triton – qHTS Assay for Promiscuous and Specific Inhibitors of Cruzain (with detergent); Cruzipain (Trypanosoma cruzi), P25779; purified cruzain, Z-FR-AMC fluorescence, 0.01% Triton; Potency, µM, without a hit: max response, negative = inhibition, usual class: inhibitors; hit rate 0.43% among 200,000; AID 1478, 2009;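 note: plate controls were neutral wells for no effect and buffer without enzyme for full effect; nearly all actives have a fitted effect of over 40% in size; top concentration of the series not given in the record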
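Detergent-containing arm of a paired screen for aggregation-based inhibition: 0.01% Triton X-100 present. Cruzain at 1.5 nM cleaved 2 uM Z-FR-AMC at pH 5.5 with 5 mM DTT; AMC fluorescence gain over 60 s measured activity.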
RE007 growth inh – qHTS Assay for Inhibitors of the HIV-1 protein Vpr; S. pombe RE007 Vpr strain, BacTiter-Glo ATP luminescence, 24 h; control for the full effect not named in the record; Potency, µM (highest dose often 92.2 µM), without a hit: at the top dose activity change, negative = less growth; hit rate 0.21% among 360,000; active = well fitted falling curve with a large enough effect; inconclusive = small, poorly fitted or top-dose-only effect; inactive = no such curve, though single readings can be large or run the other way;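 note: % is set by controls: 0 for no effect and ±100 for the full control effect; nearly all actives have a fitted effect of over 50% in size; the assay follows cell death caused by Vpr and the record does not say whether a fall means rescue or toxicity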
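Fission yeast strain RE007, carrying one chromosomally integrated HIV-1 vpr copy, was seeded at OD 0.01 in PMG+AL medium with 23 nL pinned compound. After 24 h at 30 °C and 99% humidity, viability was read by BacTiter-Glo luminescence.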
SARS PLP yeast – qHTS of Yeast-based Assay for SARS-CoV PLP | S. cerevisiae expressing SARS-CoV PLpro, growth rescue; control for the full effect not named in the record | Potency, µM (doses to about 32.9 µM), without a hit: at the top dose activity, positive = growth rescue | hit rate 0.19% among 330,000 | AID 485353, 2010; active means well fitted rising curve with a large enough effect; inconclusive means small, poorly fitted or top-dose-only effect; inactive means no such curve, though single readings can be large or run the other way; note: 0% is about no effect; nearly all actives have a fitted effect of over 55% in size; growth read by luminescence after 48 h
Marburg entry inh – qHTS for inhibitors of binding or entry into cells for Marburg Virus. Marburg virus pseudotyped entry inhibition, cell reporter; control for the full effect not named in the record; about a third of the inactives were read at about 46 µM. Potency, µM (top dose mostly 37.8 µM), for inactives: at the top dose activity change, negative = inhibition, actives largely listed as inhibitors. hit rate 1.8% among 300,000; active = well fitted inhibition curve with a large enough effect; inconclusive = small, poorly fitted or top-dose-only effect, or effect the other way; inactive = flat fitted curve, though single readings scatter; tested in HEK293 cells; about a fifth of its hits are not listed in these tables; note: % is set by controls: 0 for no effect and ±100 for the full control effect; luciferase read-out
* = called active by the depositor; ? = inconclusive; . = not tested or not shown; & = joins results of further samples; ! = not active in a repeat; [ ] = another dose, or the depositor's remark. Unless noted, calls come from the whole dose curve; as a rule, active = well fitted curve in the direction sought with a large enough effect; inconclusive = small, poorly fitted or top-dose-only effect, or another doubt; inactive = no such curve, though single readings can be large; an effect the other way counts as inactive or inconclusive. Potency is the fitted concentration of half-maximal effect. No enrichment for hits; overall some 4.5% were active at least once.

SMILES	NS1 function inh	Cruzain noTriton	StopGo reporter	Lassa entry inh	Cruzain Triton	RE007 growth inh	SARS PLP yeast	Marburg entry inh
O=C(Nc1ccc(S(=O)(=O)N2CCCC2)cc1Cl)C1=COCCO1	-6%	5%	27%	?	5.1%	4%	14%	3%
COc1ccc(Cl)cc1NC(=O)CSC1=Nc2ccccc2C2=NC(CCC(=O)NCc3ccco3)C(=O)N12 (stereo not given)	.	?	-19%	0%[46.1 µM]	-6.6%	.	.	10%[46.1 µM]
Cc1nc(C(=O)N2CCCC(N3CCN(c4ccccc4C)CC3)C2)cs1 (stereo not given)	1%	.	-28%	3%	.	4%	23%	-31%
COc1ccnc(N=CNOCc2cccc(Cl)c2Cl)c1C#N	-2%	-5%	6%	0%	-7.7%	19%	-2%	4%
CC(C)(CNC(=O)c1ccc(NS(=O)(=O)c2ccc(F)cc2)cc1)N1CCOCC1	10%	.	-14%	3%	.	-16%	-2%	-2%
CN(C)c1cc[n+](CC(=O)c2ccc(OC(F)F)cc2)cc1	-32%	.	-14%	?	.	-24%	-2%	?
COc1ccc(-n2c(CN3CCN(c4ccccc4OC)CC3)nc3ccc([N+](=O)[O-])cc3c2=O)c(OC)c1	7%	.	?	.	.	1%	-1%	.
COc1ccc(-c2nn(-c3ccccc3)cc2/C=N/NS(=O)(=O)c2ccccc2)cc1	24%	?	36%[activator]	-2%	-1.0%	-1%	-4%	?
Cc1cccc(C)c1OCc1nnc(SCC(=O)Nc2nccs2)n1-c1ccccc1	-3%	?	-1%	?	7.5%	7%	.	?
CC(NC(=O)Cn1c(NCCO)nc2ccccc21)c1ccccc1 (stereo not given)	0%	5%	-3%	1%	6.9%	-2%	6%	-7%[46.1 µM]
O=C(NC(=S)Nc1ccc(S(=O)(=O)N2CCCCCC2)cc1)c1cccs1	-3%	?	-9%	21%	-2.9%	7%	5%	?
Cc1cccc(C)c1-n1c(SCC(=O)Nc2ccc(C(=O)O)cc2)nnc1-c1cccc(S(=O)(=O)N(C)C)c1	-5%	.	-2%	.	.	9%	2%	.
O=C(NCC1CCCO1)C1CCCN(Cc2cnn(-c3ccccc3)c2-n2cccc2)C1 (stereo not given)	-5%	-4%	-24%	-4%	4.9%	-8%	5%	-1%&-1%
CC(=O)N1CCN(C(C)=O)C1c1ccccc1	1%	0%	-2%	-6%	12%	-10%	29%	5%
COc1cc([N+](=O)[O-])cc2cc(C(=O)NC(C)(C)C)c(=O)oc12	0%	.	-10%	1%	.	-1%	1%	8%[46.1 µM]
CNC(=O)CSc1nc2c(c(=O)n(C)c(=O)n2C)n1Cc1ccc(C)cc1	-1%	-2%	.	-15%	1.9%	-4%	11%	1%
O=C(C1CCCCC1)N1CCN(S(=O)(=O)c2cccc([N+](=O)[O-])c2)CC1	6%	.	5%	.	.	2%	-2%	.
O=C(NCc1ccco1)C1CCN(C(=O)c2cc3sccc3n2Cc2ccc(Cl)cc2)CC1	?	20%	.	?	-11%	0%	-8%	12µM*!
Cc1nnc(NC(=O)CSc2nnc(CNC(=O)c3ccc(S(=O)(=O)N(C)C)cc3)o2)s1	-1%	.	-12%	8%	.	-13%	1%	-3%
CCCCOC(=O)Nc1nnc(CCc2ccccc2)s1	-7%	-11%	.	7%	7.1%	-11%	-5%	-12%
CCOC(=O)Cc1nnc(NC(=O)c2cccc(OCC)c2)s1	-7%	7%	8%	16%	1.0%	0%	-4%	3%[46.1 µM]
COc1ccc(OC)c(N(CC(=O)NN=C2CCN(C)CC2)S(=O)(=O)c2ccccc2)c1	3%	.	9%	-11%[46.1 µM]	.	1%	2%	-14%[46.1 µM]
Cc1cc(C)c(C#N)c(SCC(=O)c2cc(C)n(CCc3ccccc3)c2C)n1	?	?	-28%	?	-6.2%	-1%	-6%	?
O=C(NNC(=O)c1cccc2ccccc12)c1ccc(Cl)c(Cl)c1	.	.	36%[activator]	1%	.	1%	.	-3%
O=[N+]([O-])c1ccc(N2CCCCC2)cc1N1CCOCC1	-29%	-2%	2%	?	-1.4%	-24%	-6%	-14%
Cc1cccc(Oc2nc3c(C)cccn3c(=O)c2/C=C(\C#N)c2nc3ccccc3[nH]2)c1	.	-7%	7%	24%[46.1 µM]	1.2%	.	.	.
CCOc1ccc(S(=O)(=O)NCCC(=O)N2CCN(c3ncccn3)CC2)cc1	.	.	-12%	-16%	.	23%	-3%	17%
COc1ccc(NC(=O)CCc2nnc3n(C)c(=O)c4sccc4n23)cc1Cl	.	6%	-11%	-2%[46.1 µM]	2.0%	.	.	?
O=C(CNC(=O)c1ccco1)OCC(=O)c1ccc(Cl)cc1Cl	-6%	.	-8%	3%	.	26%	1%	-19%[46.1 µM]
CCC(Sc1nc2n[nH]c(C)c2c(=N)n1-c1ccc(Br)cc1)C(=O)N(CC)CC (stereo not given)	.	8%	?	?	1.8%	.	.	.

Arranged by SMILES length (smallest number first): part of the list above.
SMILES	NS1 function inh	Cruzain noTriton	StopGo reporter	Lassa entry inh	Cruzain Triton	RE007 growth inh	SARS PLP yeast	Marburg entry inh
CCOC(=O)Cc1nnc(NC(=O)c2cccc(OCC)c2)s1	-7%	7%	8%	16%	1.0%	0%	-4%	3%[46.1 µM]
O=C(NNC(=O)c1cccc2ccccc12)c1ccc(Cl)c(Cl)c1	.	.	36%[activator]	1%	.	1%	.	-3%
CCOc1ccc(S(=O)(=O)NCCC(=O)N2CCN(c3ncccn3)CC2)cc1	.	.	-12%	-16%	.	23%	-3%	17%
Cc1cc(C)c(C#N)c(SCC(=O)c2cc(C)n(CCc3ccccc3)c2C)n1	?	?	-28%	?	-6.2%	-1%	-6%	?
CCC(Sc1nc2n[nH]c(C)c2c(=N)n1-c1ccc(Br)cc1)C(=O)N(CC)CC (stereo not given)	.	8%	?	?	1.8%	.	.	.
Cc1nnc(NC(=O)CSc2nnc(CNC(=O)c3ccc(S(=O)(=O)N(C)C)cc3)o2)s1	-1%	.	-12%	8%	.	-13%	1%	-3%
Cc1cccc(Oc2nc3c(C)cccn3c(=O)c2/C=C(\C#N)c2nc3ccccc3[nH]2)c1	.	-7%	7%	24%[46.1 µM]	1.2%	.	.	.

The list continues.
SMILES	NS1 function inh	Cruzain noTriton	StopGo reporter	Lassa entry inh	Cruzain Triton	RE007 growth inh	SARS PLP yeast	Marburg entry inh
CN(c1ccc(OCC(=O)OCC(=O)c2c(N)n(C)c(=O)n(C)c2=O)cc1)S(=O)(=O)c1ccc2ccccc2c1	.	.	-9%	10%[46.1 µM]	.	2%	0%	0%[46.1 µM]
O=S(=O)(c1ccc(Br)s1)N1CCN(c2ccc(F)cc2)CC1	-2%	.	-15%	17%[46.1 µM]	.	5%	-1%	?
O=C(CSc1c2c(nc3ccc(Cl)cc13)CCCC2)N1CCN(c2cccc(Cl)c2)CC1	.	5%	?	?	-6.4%	.	.	?
CCCc1nnc(SCC(=O)N(CC)CC)n1CC1CCCO1 (stereo not given)	.	.	-2%	12%[46.1 µM]	.	3%	-4%	?
COc1cc(-c2cc(OC)c3c(C)oc(C)c3c(=O)c2)ccc1OC(=O)c1cccc(C)c1	.	?	-29%	-19%[46.1 µM]	-11%	.	.	-1%[46.1 µM]
O=C(NC(=S)N1CCc2ccccc21)c1ccc(Br)o1	-42%	.	16%	7%	.	6%	-5%	?
O=c1oc2ccc(Br)cc2cc1-c1nc(-c2ccccc2)no1	.	-2%	-13%	6%[46.1 µM]	2.7%	.	.	25%[46.1 µM]
COC(=O)c1cccc(Nc2ccc([N+](=O)[O-])cn2)c1	-1%	.	6%	?	.	0%	-2%	-3%[46.1 µM]
CN(C)/C=N/C1=C(C#N)C(c2cccs2)c2ccc3ccccc3c2O1 (stereo not given)	4%	.	-6%	?	.	7%	-2%	?
O=C(Cn1ccc2ccccc2c1=O)NCCC(=O)Nc1cccc(Cl)c1	3%	.	-14%	?	.	0%	8%	-24%[46.1 µM]
COc1ccc(/C=C/c2nc3sc4c(c3c(=O)o2)CCC4)cc1	.	.	31%[activator]	15%	.	9%	.	19%
Fc1ccccc1Cn1cc(C(=S)N2CCOCC2)c2ccccc21	-6%	.	34%[activator]	.	.	2%	2%	.
CC(C)C(=O)N1CCC2(CC1)Oc1ccc(Cl)cc1C(=O)C21CC(c2ccccc2)=NO1 (stereo not given)	-8%	.	0%	.	.	-19%	-8%	.
Cc1ccc(C)c(Cn2nnc3c(=O)[nH]c(C(=O)Nc4ccc(F)cc4)nc32)c1	.	.	-19%	-13%	.	5%	0%	-5%[46.1 µM]
CC(=O)c1cc(C)ccc1OC(=O)c1ccco1	5%	-17%	.	0%	-1.8%	7%	0%	-4%
Cc1onc(-c2ccccc2)c1C(=O)N/N=C/c1c(F)cccc1Cl	1%	.	-3%	8%	.	-19%	3%	22%
Cc1cccc(N2CCN(C(=O)CCCOc3ccccc3)CC2)c1C	-93%	19%	14%	2%	-7.7%	-7%	-16%	-31%
Cc1ccc(NCc2cccn2-c2nnc(N3CCC(C(=O)NCCc4ccccc4)CC3)s2)cc1	.	-6%	2%	.	-6.5%	.	.	?
COc1ccc(-n2nc3cc(C)c(NC(=O)c4ccc(-c5ccc(Br)cc5)o4)cc3n2)cc1	.	-2%	46%[activator]	30%[46.1 µM]	0.2%	.	.	.
